IMPase Li inh – membrane-permeable IMPase blocker, potentiated with lithium; Potency, µM (highest dose often 59.4 µM), for inactives: top-dose activity, negative = IMPase inhibition, usual class: inhibitors; actives 0.35% (n = 210,000); CHO-M1 cells, IP1 TR-FRET (IP-One), carbachol + lithium;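 also: IP1 builds up when IMPase is blocked and the TR-FRET signal falls; plate controls were basal vehicle for no effect and high inhibitor control for full effect; nearly all actives have a fitted effect of over 50% in size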
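IP1 accumulation measured by competitive TR-FRET in lysed CHO-M1 cells after 30 min compound exposure at 37C, with a small lithium addition to potentiate weak responses. Hill-equation AC50 from ratio and donor-channel data.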
RGS12 GoLoco inh – inhibitors of human Gai1-RGS12 GoLoco interaction (red fluorophore) | Gai1:RGS12 GoLoco peptide FP, rhodamine, 10 min | actives 0.44% (n = 230,000) | P63096 | Potency, µM (doses to about 61.6 µM), inactives show at the highest dose activity, negative = inhibition, most hits filed as inhibitors; active = well fitted inhibition curve with a large enough effect, not every such curve was filed as active; inactive = no such curve, though single readings can be large or run the other way; also: % is scaled to controls: 0 for no effect and ±100 for the full control effect; nearly all actives have a fitted effect of over 30% in size; many of its hits are not listed in these tables
Target sequence (P63096 whole entry, looked up): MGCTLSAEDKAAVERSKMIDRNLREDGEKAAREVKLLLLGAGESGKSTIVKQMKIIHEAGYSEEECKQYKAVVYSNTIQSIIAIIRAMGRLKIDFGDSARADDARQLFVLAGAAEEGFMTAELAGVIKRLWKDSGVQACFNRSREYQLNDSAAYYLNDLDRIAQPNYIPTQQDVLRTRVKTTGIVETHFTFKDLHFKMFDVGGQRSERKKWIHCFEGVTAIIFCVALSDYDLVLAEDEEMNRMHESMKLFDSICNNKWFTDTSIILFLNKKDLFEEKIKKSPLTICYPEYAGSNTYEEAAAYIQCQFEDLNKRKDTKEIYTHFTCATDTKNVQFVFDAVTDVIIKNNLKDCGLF
SMN2 splice enh – increases expression of the SMN2 splice variant | HEK293 SMN2-luciferase splicing reporter, luminescence, 30-36 h | Potency, µM (highest dose often 46.1 µM), without a hit: top-dose activity change, positive = activation, usual class: activators | actives 2.8% (n = 210,000); also: % of control where 0% means no effect; nearly all actives have a fitted effect of over 55% in size
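qHTS luciferase splicing reporter: luminescence rises when SMN2 exon 7 is included in transfected HEK293 cells. Compound exposure lasted 30-36 h at 37C, with 4.5 mM final sodium butyrate as control, followed by a ONE-Glo read.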
NPSR antagonist – blocks cAMP signaling of the human neuropeptide S receptor. Q6W5P4. CHO-NPSR cells, cAMP TR-FRET, antagonist mode. Potency, µM (series often up to 38.3 µM), for the others: at the top dose activity change, negative = inhibition, most hits filed as inhibitors. actives 1% (n = 220,000). AID 1461; also: % is scaled to controls: 0 for no effect and ±100 for the full control effect; nearly all actives have a fitted effect of over 50% in size; many of its hits are not listed in these tables
Target sequence (Q6W5P4 whole entry, looked up): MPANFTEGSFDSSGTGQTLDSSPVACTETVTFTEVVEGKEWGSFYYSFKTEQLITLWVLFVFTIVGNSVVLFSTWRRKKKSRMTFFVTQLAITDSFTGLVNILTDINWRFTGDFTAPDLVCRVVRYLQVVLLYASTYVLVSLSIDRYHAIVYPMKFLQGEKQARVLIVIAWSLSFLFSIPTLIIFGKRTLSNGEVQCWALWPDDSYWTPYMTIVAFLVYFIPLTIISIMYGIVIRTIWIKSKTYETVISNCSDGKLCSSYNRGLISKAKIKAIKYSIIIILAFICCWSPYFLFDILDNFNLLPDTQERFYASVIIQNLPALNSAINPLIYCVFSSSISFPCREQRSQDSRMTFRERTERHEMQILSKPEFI
RECQ1 helicase – RECQ1 (human) helicase inhibition; actives 0.54% (n = 240,000); P46063; AID 2549; Potency, µM (highest dose often 57.3 µM), without a hit: at the top dose activity, negative = inhibition, actives largely listed as inhibitors; RECQ1 DNA unwinding, red fluorescence kinetic read;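 also: plate controls were vehicle for no effect and no enzyme for full effect; nearly all actives have a fitted effect of over 30% in size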
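50 nM RECQ1T1 preincubated 15 min with compound in Tris pH 8.0 buffer with MgCl2, DTT, Tween-20 and 2.5 ug/ml poly(dI-dC); started with 200 nM TAMRA/BHQ-2 forked duplex and 2 mM ATP. Unwinding read as fluorescence (525/598 nm), two reads 2 h apart.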
Luc counter – Kinase-Glo luciferase inhibition (counter-screen) | Q27757 | Kinase-Glo luciferase, ATP luminescence, 8 min | Potency, µM (highest dose often 38.3 µM), for inactives: top-dose activity change, negative = inhibition, hits mostly inhibitors | actives 0.28% (n = 200,000); also: % is scaled to controls: 0 for no effect and ±100 for the full control effect; nearly all actives have a fitted effect of over 60% in size
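Compounds were added to a substrate mix at pH 7.2 (50 mM imidazole, 10 uM ATP, within the enzyme's linear range), followed by Kinase-Glo detection reagent; luminescence was measured after 8 minutes at ambient temperature.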
Epigenetic reg – epigenetic control regulation, reporter derepression | murine LDR cells, GFP reporter derepression, 30 h | Potency, µM (doses to about 53.9 µM), for inactives: at the top dose GFP activation, most hits filed as activators | actives 0.2% (n = 280,000); also: % of control where 0% means no effect; nearly all actives have a fitted effect of over 60% in size
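In this reporter-derepression format, murine cells bearing a silenced integrated CMV-GFP locus incubate with test compound (30 h, 37 C), then are washed and imaged; fluorescent objects of 20–120 um count as induced cells.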
An asterisk follows results filed as active; i = inactive; ? = inconclusive; . = not tested or not shown; [ ] = another dose, or the depositor's remark. Unless noted, calls follow the shape of the dose curve; as a rule, active = well fitted curve in the direction sought with a large enough effect; inconclusive = small, poorly fitted or top-dose-only effect, or another doubt; inactive = no such curve, though single readings can be large; an effect the other way counts as inactive or inconclusive. Potency is read from the fitted curve at half-maximal effect. The list is partial; the hit share may differ from the screen's.

1	Cc1ccc(OCC(O)CN2CCN(CC(O)COc3ccc(C)cc3Cl)CC2)c(Cl)c1 (stereo unspecified)
2	Cc1cc(C)cc(NC(=O)COc2ccc3c(C)c(Cc4ccccc4)c(=O)oc3c2)c1
3	CC1(OC(=O)C2CCCC2)C(=O)C=C2C=C(c3ccsc3)N(CC3CC3)C=C2C1=O (stereo unspecified)
4	COc1cc(C2Nc3ccc4ncccc4c3C3=C2C(=O)CCC3)cc(OC)c1OC (stereo unspecified)
5	CC(C)C(=O)NNC(=O)c1ccccn1
6	COc1ccc(C(=O)NC(=S)NNC(=O)COc2ccccc2)cc1
7	c1ccc(Nc2nc(CSc3ncn[nH]3)cs2)cc1
8	O=C(/C=C/c1cc2c(cc1Br)OCO2)NCc1ccc(F)cc1
Compound | 1 | 2 | 3 | 4 | 5 | 6 | 7 | 8
IMPase Li inh | -6%[38.3 µM] | 12% | 16% | 4% | 7% | -5% | -7% | -11%
RGS12 GoLoco inh | 1% | -9% | 9%[14.2 µM] | 16% | 3% | 5% | 21% | 4%
SMN2 splice enh | -20% | -37%[inhibitor] | -2%[9.22 µM] | . | 4% | -14% | -28% | -14%
NPSR antagonist | ? | -9% | -19% | 8% | 23% | 5% | 17% | -15%[46.1 µM]
RECQ1 helicase | -1% | -2% | -13%[11.5 µM] | 6% | -3% | i | -5% | -12%
Luc counter | -3% | -1% | -5%[7.66 µM] | 4% | -1% | -1% | -1% | 2%
Epigenetic reg | -0.2% | -1.9% | -1.3% | -1.1% | -1.0% | -0.6% | 1.5% | -0.9%

Reprinted from the part before: 2 compounds; new compounds follow.
7	c1ccc(Nc2nc(CSc3ncn[nH]3)cs2)cc1
8	O=C(/C=C/c1cc2c(cc1Br)OCO2)NCc1ccc(F)cc1
9	Cc1cc(C)cc(NC(=O)C(NCCN2CCOCC2)c2ccccc2)c1 (stereo unspecified)
10	COc1ccccc1-c1c(C)[nH]n2c(=O)c(Cc3ccccc3)c(C)nc12
11	CCOC(=O)NC1(Nc2cccc(Cl)c2)Oc2ccccc2O1
12	C[C@H](NC(=O)c1nc[nH]c1C(=O)NC1CCN(C(=O)OC(C)(C)C)CC1)C(=O)OC(C)(C)C
13	CCOc1ccccc1NC(=S)Nc1ccc2cn[nH]c2c1
14	Cc1cc(NCc2ccncc2)ccc1Br
15	Cc1ccc(NC(=O)Cn2c(=O)c(C)nc3ccccc32)cc1
16	COCCCNCCCCOc1ccccc1-c1ccccc1
Compound | 7 | 8 | 9 | 10 | 11 | 12 | 13 | 14 | 15 | 16
IMPase Li inh | -7% | -11% | 16% | . | -1% | 0% | . | 1% | 5% | 9%
RGS12 GoLoco inh | 21% | 4% | -1% | 8% | -4% | 5% | 0% | -8% | 16% | -10%
SMN2 splice enh | -28% | -14% | 6% | . | 19% | . | . | . | 5% | -7%
NPSR antagonist | 17% | -15%[46.1 µM] | -3% | 51% | 0%[46.1 µM] | 21% | -17% | 48% | -4% | 8%
RECQ1 helicase | -5% | -12% | -5% | i | -15% | 0% | 2% | i | -5% | 3%
Luc counter | -1% | 2% | 3% | . | -1% | . | . | 1% | 0% | 1%
Epigenetic reg | 1.5% | -0.9% | -1.1% | 6.6% | 1.0% | -1.3% | -0.1% | 2.1% | ? | -1.8%

17	C=CCc1ccc(OCCCCN2CCC(C)CC2)c(OC)c1
18	COC(=O)c1ccc(/C=N/n2cnnc2)cc1
19	CCOC(=O)N1CCN(CC(=O)Nc2cc(OCC)ccc2OCC)CC1
20	Cc1cccc(C)c1NC(=O)CCCSc1nnc(-c2ccco2)n1-c1ccccc1
21	N#Cc1cnc(SCC(=O)Nc2ccccc2C(F)(F)F)nc1N
22	COc1ccccc1C(=O)N1CCC(N2CCN(c3ccccc3OC)CC2)CC1
23	CCOCCCNCc1ccc(OCCC(C)C)c(OC)c1
24	CCCn1nc(NC(=O)C2CCCO2)c2cc3cccc(C)c3nc21 (stereo unspecified)
Compound | 17 | 18 | 19 | 20 | 21 | 22 | 23 | 24
IMPase Li inh | 1% | -3%[38.3 µM] | -3% | 10%[38.3 µM] | 6% | . | 4% | .
RGS12 GoLoco inh | -16% | 3% | 0% | -2% | 104%[activator] | -2% | -15% | 26%
SMN2 splice enh | -13% | -9% | -19% | -4% | 9% | . | -34%[inhibitor] | .
NPSR antagonist | 7% | -24%[46.1 µM] | -16% | -20%[46.1 µM] | 21%[46.1 µM] | -6% | 5% | -21%
RECQ1 helicase | -16% | 0% | -1% | 0% | -2% | -7% | -4% | -7%
Luc counter | 0% | -1% | 3% | 1% | 4% | . | 2% | .
Epigenetic reg | -3.2% | 0.4% | 0.0% | 0.2% | 3.0% | 0.1% | -0.7% | -1.1%

25	CCC(=O)Nc1nn(C)c2nc3c(C)cccc3cc12
26	CCN(CC)S(=O)(=O)c1cc(C(=O)Oc2cccc(-c3cnc4ccccc4n3)c2)ccc1OC
27	COc1ccc(Nc2nnc(SCC(=O)c3cc4ccccc4o3)s2)cc1
28	Cc1ccc(NCc2ccco2)cc1C
29	Brc1ccccc1OCCNCc1ccccc1
30	COC(=O)c1ccc(/C=N\n2c(C)nnc2C)cc1
31	Cn1cc(Cl)c(C(=O)NNC(=S)NCc2ccco2)n1
32	CC1=CC(C)[C@H](/C=N/n2c(=O)[nH]c3c([nH]c4ccc(Br)cc43)c2=O)C(C)C1 (stereo partly specified)
Compound | 25 | 26 | 27 | 28 | 29 | 30 | 31 | 32
IMPase Li inh | -1% | 0% | . | -7% | 1% | -7% | -1% | 9%
RGS12 GoLoco inh | 10% | -1% | 21% | -4% | 3% | -9% | -7% | -1%
SMN2 splice enh | 4% | 13µM* | . | . | -3% | -2% | 14% | -42%[inhibitor]
NPSR antagonist | 5%[46.1 µM] | 7% | -43% | 5% | -3% | -19%[46.1 µM] | 8% | 21%
RECQ1 helicase | -1% | -1% | i | i | 2% | 7% | i | -6%
Luc counter | 1% | -2% | . | -6% | -3% | 6% | -4% | -3%
Epigenetic reg | 0.0% | 0.0% | ? | -9.9% | 0.2% | -3.5% | -1.5% | 4.5%

33	Cc1nnc(NC(=O)CSc2ccc3nnc(-c4cccnc4)n3n2)s1
34	Cc1nc2c(c(=O)n1CCC(C)C)c1nc3ccccc3nc1n2CC1CCCO1 (stereo unspecified)
35	COc1cccc(CN(C)CC(=O)Nc2cccc3ccccc23)c1
36	CC1=C(C(N)=O)C(c2ccc3c(c2)OCO3)n2nc(-c3cccc(C)c3)nc2N1 (stereo unspecified)
Compound | 33 | 34 | 35 | 36
IMPase Li inh | 2% | . | -2% | 11%[38.3 µM]
RGS12 GoLoco inh | 2% | 7% | -1% | 1%
SMN2 splice enh | -9% | . | -6% | 12%
NPSR antagonist | 23% | -38% | -14% | -5%[46.1 µM]
RECQ1 helicase | 1% | -1% | -4% | -3%
Luc counter | -3% | . | 0% | -3%
Epigenetic reg | -0.1% | 3.2% | -3.2% | 1.1%

Structures listed so far that contain an aryl methoxy group (nine):
4	COc1cc(C2Nc3ccc4ncccc4c3C3=C2C(=O)CCC3)cc(OC)c1OC (stereo unspecified)
6	COc1ccc(C(=O)NC(=S)NNC(=O)COc2ccccc2)cc1
10	COc1ccccc1-c1c(C)[nH]n2c(=O)c(Cc3ccccc3)c(C)nc12
17	C=CCc1ccc(OCCCCN2CCC(C)CC2)c(OC)c1
22	COc1ccccc1C(=O)N1CCC(N2CCN(c3ccccc3OC)CC2)CC1
23	CCOCCCNCc1ccc(OCCC(C)C)c(OC)c1
26	CCN(CC)S(=O)(=O)c1cc(C(=O)Oc2cccc(-c3cnc4ccccc4n3)c2)ccc1OC
27	COc1ccc(Nc2nnc(SCC(=O)c3cc4ccccc4o3)s2)cc1
35	COc1cccc(CN(C)CC(=O)Nc2cccc3ccccc23)c1
Compound | 4 | 6 | 10 | 17 | 22 | 23 | 26 | 27 | 35
IMPase Li inh | 4% | -5% | . | 1% | . | 4% | 0% | . | -2%
RGS12 GoLoco inh | 16% | 5% | 8% | -16% | -2% | -15% | -1% | 21% | -1%
SMN2 splice enh | . | -14% | . | -13% | . | -34%[inhibitor] | 13µM* | . | -6%
NPSR antagonist | 8% | 5% | 51% | 7% | -6% | 5% | 7% | -43% | -14%
RECQ1 helicase | 6% | i | i | -16% | -7% | -4% | -1% | i | -4%
Luc counter | 4% | -1% | . | 0% | . | 2% | -2% | . | 0%
Epigenetic reg | -1.1% | -0.6% | 6.6% | -3.2% | 0.1% | -0.7% | 0.0% | ? | -3.2%

Source: PubChem (National Center for Advancing Translational Sciences (NCATS))
